Screening data deposited in PubChem by several laboratories.
Mtb H37Rv: M. tuberculosis H37Rv growth inhibitors, H37Rv strain (AID 1626). 220,000 tested, 0.95% active. one-dose inhibition, % at 10 µM; IC50 in µM for titrated hits. M. tuberculosis H37Rv growth inhibition; higher % means a stronger effect;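 active = confirmed in a dose series; inconclusive = inhibition above 80% but not taken into the dose series; inactive = below 80% or under 30% at every dose of the series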;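 note: bacteria incubated seven days before Alamar blue readout; 0% = bacteria only wells and 100% = bacteria with antibiotic wells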
Mtb betalactam: beta-lactam sensitization of Mtb H37Rv; 330,000 tested, 0.27% active; M. tuberculosis H37Rv growth with meropenem, percent inhibition; hits of this screen are not shown here; inhibition, % at 25 µM;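 active = about 74% or more and at least 40 points above the plate without the antibiotic, then above 30% in a dose series; inconclusive = first-round hits that could not be retested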;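 note: growth measured after seven days incubation then overnight dye step; 0% = bacteria only wells and 100% = bacteria with antibiotic; twin plates without the antibiotic show which effects depend on it; some results filed as inactive read as strong as hits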
YopH PTP inh: inhibitors of Yersinia enterocolitica YopH tyrosine phosphatase | fluorescence Ex485/Em525 | inhibition, %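 (about 10 µM by stock and volumes)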 | 140,000 tested, 0.16% active | AID 898;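 active = inhibition of 50% or more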;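 note: controls were vehicle for no effect and minimum signal wells for full effect; inactives centre near -20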
RecA splice inh: inhibitors of M. tuberculosis RecA intein splicing; P9WHJ3; cell-free RecA intein splicing, fluorescence; inhibition, %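 (about 9 µM by stock and volumes)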; 290,000 tested, 0.75% active; in the data active = inhibition above about 30%; inconclusive = no clear call, values can overlap the other calls;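 note: 0% = vehicle wells and 100% = reference inhibitor control wells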
Target sequence (P9WHJ3 whole entry, looked up, canonical isoform): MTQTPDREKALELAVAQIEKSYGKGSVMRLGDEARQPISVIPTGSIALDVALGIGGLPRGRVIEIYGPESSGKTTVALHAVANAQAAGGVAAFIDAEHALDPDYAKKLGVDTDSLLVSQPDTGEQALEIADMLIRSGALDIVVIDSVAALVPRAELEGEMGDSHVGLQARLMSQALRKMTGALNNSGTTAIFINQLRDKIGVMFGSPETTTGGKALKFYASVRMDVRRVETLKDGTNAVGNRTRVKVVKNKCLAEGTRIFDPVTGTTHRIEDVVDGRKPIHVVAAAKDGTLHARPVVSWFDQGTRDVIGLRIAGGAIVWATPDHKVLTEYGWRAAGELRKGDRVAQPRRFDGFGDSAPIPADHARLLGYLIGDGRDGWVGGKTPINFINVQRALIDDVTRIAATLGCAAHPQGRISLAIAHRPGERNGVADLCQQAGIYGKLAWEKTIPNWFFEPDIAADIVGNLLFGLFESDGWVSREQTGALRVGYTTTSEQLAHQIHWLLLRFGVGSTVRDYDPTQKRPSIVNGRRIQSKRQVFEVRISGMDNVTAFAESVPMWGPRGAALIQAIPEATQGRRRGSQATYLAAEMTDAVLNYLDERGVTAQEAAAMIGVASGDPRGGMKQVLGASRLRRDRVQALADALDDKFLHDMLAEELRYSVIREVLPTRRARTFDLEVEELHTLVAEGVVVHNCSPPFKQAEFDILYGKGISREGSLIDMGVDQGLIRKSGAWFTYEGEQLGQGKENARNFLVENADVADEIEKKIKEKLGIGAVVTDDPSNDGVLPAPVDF
Arbovirus anti: blocks arbovirus infection. arbovirus infection cell-based antiviral screen. inhibition, % at 10 µM. 200,000 tested, 0.37% active;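 active = inhibition from about 30%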;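 note: bluetongue infection of BSR cells; cell survival read as ATP light after 72 h; 0% = infected wells without compound and 100% = uninfected wells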
Arbovirus anti repeat: second read-out of Arbovirus anti, no call of its own (marks repeat the call); inhibition, %; measured here: 10K subset replicate screen; many hits read low in the repeat;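 first of two repeat runs on a subset; 0% = infected and 100% = uninfected wells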
* hit, by the source's call; u = inconclusive; x = not tested or not shown. An excerpt; rates above refer to the full screens.

SMILES	Mtb H37Rv	Mtb betalactam	YopH PTP inh	RecA splice inh	Arbovirus anti	others
COc1cccc2cc(C(=O)Nc3ccccc3C)/c(=N/NS(=O)(=O)c3ccccc3)oc12	x	6	x	-1.1	x
O=C1c2cccnc2Nc2ccccc2N1CCCF	-1%	26	-37	-5.3	1
CCn1cc(C(=O)O)c(=O)c2cnc(N3CCN(C(=S)NC(=O)c4ccccc4Cl)CC3)nc21	-11%	-7	x	-0.7	x
CCCOc1cccc(C(=O)N(Cc2cccs2)C2CCS(=O)(=O)C2)c1 (stereo unspecified)	-4%	-2	-28	0.5	13
CCOC(=O)N1CCC(NC(=O)c2cnn3ccccc23)CC1	4%	-2	-33	-1.7	12	Arbovirus anti repeat=3
COc1ccc(C2CC(=O)Nc3cc(OC)c(OC)cc32)cc1Br (stereo unspecified)	x	-2	x	-0.8	x
O=C(O)/C=C/c1ccc2noc(-c3ccccc3)c2c1	6%	5	x	-0.4	11
Cc1cc(C)cc(NS(=O)(=O)c2csc(C(N)=O)c2)c1	x	-2	x	1.5	x
O=C(CN1C(=O)COc2ccc(Cl)cc21)N1CCOCC1	x	-10	x	-2.5	x
CCOC(=O)C1CCCN(C(=O)c2cn(C)c(=O)c3cc(OC)c(OC)cc23)C1 (stereo unspecified)	7%	-2	-16	1.2	4	Arbovirus anti repeat=4
Cc1c(Cc2ccccc2)c(=O)oc2c(C)c(OCC(=O)NCc3ccccn3)ccc12	x	-1	x	-2.5	x
O=c1[nH]c(O)c(C=Nc2ccccc2[N+](=O)[O-])c(=O)[nH]1	3%	-4	x	15	15
CC(C)CCn1cnc2c(sc3nc4c(cc32)CSC(C)(C)C4)c1=O	-5%	35	-23	-0.2	5
Cc1cccc(Cc2c(C)nc3nc(SCC(=O)NCc4ccco4)nn3c2C)c1	4%	u	-11	7.8	-14	Arbovirus anti repeat=-13
CCOC(=O)N1C=CC(C)=C[C@@H]2[C@@H](N3C(=O)c4ccccc4C3=O)C(=O)N21	-6%	1	-25	0.7	4
COc1ccc(N2C(=O)CC(C3CCCO3)C2=O)cc1 (stereo unspecified)	-4%	-15	x	0.2	0
Cc1cccc(NCc2nc(SCC(=O)Nc3ccccc3)n[nH]2)c1	x	0	x	-0.9	x
Cc1cccc(NC(=O)C2CCN(c3nc(C)cc(C)n3)CC2)c1	-4%	8	-34	0.4	-8
O=C1NC(=S)N/C1=C\c1cccnc1	-2%	1	x	1.7	x
O=C(NNc1c(Cl)cccc1Cl)c1ccno1	-9%	-10	x	0.7	x
Cc1c(Cl)cccc1NC(=O)CN1CCN(CCN=CC2=C(O)CC(c3ccccc3)CC2=O)CC1 (stereo unspecified)	-5%	1	x	-1.6	9
COc1ccc(S(=O)(=O)N2CCCCC2)cc1C(=O)N1CCCC1	x	-6	x	-1.6	x
CCCn1ncc(OC)c(Cl)c1=O	-13%	-3	5	0.6	-2
CC(N)c1ccc(Cl)cc1Cl (stereo unspecified)	3%	29	-22	-3.7	3
O=C(OCc1nnc(-c2ccccc2)o1)c1ccc(-n2cnnn2)cc1	x	3	x	-2.4	x
Cc1ccc(N=Cc2cc(Cc3ccccc3Cl)cc([N+](=O)[O-])c2O)c(O)c1	0%	97	x	4.3	-6
Nc1c2c(nc3ccc(Br)cc13)N(Cc1ccccc1)CC2	3%	9	-1	-5.2	8
CN(C)C(=O)c1nc2ccc(Cl)cn2c1CN1CCCC(OCc2ccccc2)C1 (stereo unspecified)	3%	-2	x	1.4	12
CCN(C(=O)CSc1nnc(Nc2cccc(C)c2C)s1)C1CCS(=O)(=O)C1 (stereo unspecified)	-9%	7	-26	-0.5	-3
Cc1cccc(C(=O)Nc2cccc(NC(=O)c3ccccc3)c2)c1	x	2	x	-3.1	x
COc1cccc(CNc2nnnn2C)c1OC	x	-4	x	0.9	x
CNCC(O)c1cc(OCc2ccccc2)c(OCc2ccccc2)cc1F (stereo unspecified)	11%	58	x	0.5	x
Cc1ccc(NC(=O)/C(C#N)=C/c2cc(C)n(-c3ccc(N4CCOCC4)c([N+](=O)[O-])c3)c2C)c(C)c1	3%	-8	-33	0.3	1
NC(=O)c1ccccc1NC(=O)Nc1ccc(F)c(Cl)c1	1%	-5	x	-2.9	12
Cc1ccc(CSc2nnc(C)c(=O)n2N)cc1	-5%	16	5	-3.2	-9
CC(=O)c1ccc(N2CCN(C(=O)c3cc(-c4ccc5c(c4)OCO5)nc4ccccc34)CC2)cc1	5%	12	-29	2.5	-11
CCCCOC(=O)Cc1c(O)c2ccccc2[nH]c1=O	-2%	6	-35	-0.1	18	Arbovirus anti repeat=4
CN(Cc1c(F)cccc1Cl)C(=O)c1ccc2ccccc2n1	x	4	x	1.3	x
O=C(CSc1nc2c(c(=O)n1-c1ccccc1)SCC2)N1CCOCC1	1%	4	-32	-0.1	10
Nc1cc[n+](CC(=O)c2ccc3c(c2)OCCO3)cc1	3%	2	-34	x	12

6 compounds picked at random from those above:
SMILES	Mtb H37Rv	Mtb betalactam	YopH PTP inh	RecA splice inh	Arbovirus anti	others
O=C(CSc1nc2c(c(=O)n1-c1ccccc1)SCC2)N1CCOCC1	1%	4	-32	-0.1	10
Nc1c2c(nc3ccc(Br)cc13)N(Cc1ccccc1)CC2	3%	9	-1	-5.2	8
NC(=O)c1ccccc1NC(=O)Nc1ccc(F)c(Cl)c1	1%	-5	x	-2.9	12
COc1ccc(S(=O)(=O)N2CCCCC2)cc1C(=O)N1CCCC1	x	-6	x	-1.6	x
Cc1ccc(NC(=O)/C(C#N)=C/c2cc(C)n(-c3ccc(N4CCOCC4)c([N+](=O)[O-])c3)c2C)c(C)c1	3%	-8	-33	0.3	1
CN(C)C(=O)c1nc2ccc(Cl)cn2c1CN1CCCC(OCc2ccccc2)C1 (stereo unspecified)	3%	-2	x	1.4	12

3 compounds out of the list, sorted by number of heavy atoms, highest first:
SMILES	Mtb H37Rv	Mtb betalactam	YopH PTP inh	RecA splice inh	Arbovirus anti	others
Cc1c(Cl)cccc1NC(=O)CN1CCN(CCN=CC2=C(O)CC(c3ccccc3)CC2=O)CC1 (stereo unspecified)	-5%	1	x	-1.6	9
Cc1ccc(N=Cc2cc(Cc3ccccc3Cl)cc([N+](=O)[O-])c2O)c(O)c1	0%	97	x	4.3	-6
CCCCOC(=O)Cc1c(O)c2ccccc2[nH]c1=O	-2%	6	-35	-0.1	18	Arbovirus anti repeat=4

(cont.)
SMILES	Mtb H37Rv	Mtb betalactam	YopH PTP inh	RecA splice inh	Arbovirus anti	others
COc1ccc(NC(=O)c2cc3c(=O)n4ccccc4nc3n2C)c(OC)c1	6%	-2	x	-0.4	6
CN(C)N=Nc1nc2c(c(=O)n(C)c(=O)n2C)n1CC1CO1 (stereo unspecified)	-9%	0	x	0.1	x
CCOC(=O)c1[nH]c2ccc(OC)cc2c1NC(=S)N1CCN(C(=O)OCC)CC1	-3%	5	x	-0.5	-5
CC(Sc1ccccc1)C(=O)NCC1COc2ccccc2O1 (stereo unspecified)	x	-4	x	0.9	x
O=C(NCCN1CCOCC1)C1CCC(CNS(=O)(=O)c2ccccc2)CC1 (stereo unspecified)	-1%	-1	-31	1.1	-1
CC(=O)Nc1cccc(-c2cn3ccc(C)cc3n2)c1	-2%	6	x	0.2	-6
O=C(Nc1nnc(-c2ccc(Br)cc2)o1)c1cccc(N2C(=O)CCC2=O)c1	x	36	x	0.8	x
CN(C)C(CNC(=S)Nc1ccc(Cl)cc1)c1cccnc1 (stereo unspecified)	-3%	-22	x	-0.7	8
Cn1cccc1CNCCc1ccc(F)cc1	-17%	-1	-53	1.0	-14
O=C(NC1CCCC1)C(NS(=O)(=O)c1ccc(Br)s1)c1ccccc1 (stereo unspecified)	-3%	-1	-13	-2.2	6
COC(=O)C1=C(C)Nc2c(c(=O)n(C)c(=O)n2C)C1c1cccs1 (stereo unspecified)	4%	-18	-32	x	0
CCOC(=O)c1c(NC(=O)C(c2ccccc2)c2ccccc2)sc2c1C1CCN2CC1	16%	15	4	12	-24
COc1ccc(CN(CC2CCC(C(=O)O)CC2)C(=S)Nc2ccc(C)c(Cl)c2)cc1 (stereo unspecified)	2%	-2	x	7.0	10
CCn1cc(C(=O)NC(C)C23CC4CC(CC(C4)C2)C3)cn1 (stereo unspecified)	6%	4	-21	0.1	3
COc1ccc(NC(=O)c2cc3nc(-c4ccccc4)cc(-c4ccccc4)n3n2)c(OC)c1	-4%	-2	-28	-7.0	3
O=C(Cn1nnc(-c2cc(Cl)ccc2-n2cnnn2)n1)N1CCCc2ccccc21	1%	3	-28	-0.2	3
O=C(CSc1nc2ccccc2c(=O)n1CCCN1CCOCC1)NC12CC3CC(CC(C3)C1)C2	-5%	-7	x	1.2	-21
COc1ccc(S(=O)(=O)NC2CC2)cc1Br	x	-4	x	0.6	x
O=C(CSc1ccc2nnc(-c3cccnc3)n2n1)Nc1ccccc1C(F)(F)F	x	-7	x	-1.9	x
Cc1ccc(C)c(S(=O)(=O)N2CCCCC2CCNC(=O)C(=O)NCCc2ccco2)c1 (stereo unspecified)	x	1	x	0.4	x
C=CCn1c(C)cc(C(=O)COC(=O)CNC(=O)c2ccccc2)c1C	8%	3	-15	-1.1	0
CCCNC(=O)C1CCN(S(=O)(=O)c2ccc3c(c2)OCCO3)CC1	x	-5	x	-0.7	x
CC1(C)CC(=O)C2=C(C1)N=C1SCCC(=O)N1C2c1ccccc1 (stereo unspecified)	-8%	2	-15	-4.7	3
O=c1[nH]c(C2CCN(S(=O)(=O)c3ccc([N+](=O)[O-])cc3)CC2)nc2c1nnn2Cc1ccccc1	x	0	x	-0.2	x
O=C(NCc1ccncc1)C1CCN(S(=O)(=O)c2ccc(F)cc2)CC1	x	4	x	-6.3	x
COc1ccc(/C=N/NC(=O)c2ccncc2)cc1CN1CCN(c2ccc(F)cc2)CC1	u	99	x	-3.3	-4
Cc1cc2c(nn1)CCc1nonc1-2	0%	-15	3	1.7	-3
COc1ccccc1NC(=O)N(CCN1CCCC1)Cc1cc2cc(C)ccc2[nH]c1=O	8%	-13	-15	1.2	x
Cc1ccc(C)c(NC(=O)C(C)N2C(=O)c3ccccc3C2=O)c1 (stereo unspecified)	x	3	x	-1.2	x
O=C(CSc1nnc(-c2ccco2)o1)NC(=O)C1COc2ccccc2O1 (stereo unspecified)	-1%	15	-30	2.2	7
CCCn1c(SCC(=O)c2[nH]c(C)c(C(C)=O)c2C)n[nH]c1=O	2%	-6	x	-0.1	x
COc1ccccc1NC(=O)C(Sc1ccccc1)c1ccccc1 (stereo unspecified)	8%	-9	7	-1.5	2
Cc1cc([N+](=O)[O-])ccc1Nc1nc2ccccc2n2cnnc12	x	-6	x	0.3	x
O=S(=O)(c1ccccc1)c1ccc(C(F)(F)F)cn1	-1%	-5	x	0.3	-6
Cc1ccc(Nc2ccccc2)cc1	6%	0	-1	-4.2	-5
CN1C(=S)N(c2cccnc2)C(=O)/C1=C\c1ccc(C(C)(C)C)cc1	7%	77	x	3.3	-28
CC/C(=N\NC(=S)NC(C)C)c1ccc(OC(F)F)cc1	u	90	x	-1.5	2
CC1CCN(C(=O)c2[nH]cnc2C(=O)N[C@@H](C)C(=O)OC(C)(C)C)CC1	-6%	-9	x	-2.0	x
CCC(Sc1nc2ccccc2c(=O)n1CCN1CCOCC1)C(=O)NCc1cccnc1 (stereo unspecified)	2%	-1	-30	17	3
CCOC(=O)C1(CCCc2ccccc2)CCN(CC(O)CO)CC1 (stereo unspecified)	-6%	4	x	-2.7	-25
CC(C)(C)NC(=O)CSc1nc(O)cc(=O)[nH]1	-3%	6	-19	-1.2	3
CCOC(=O)c1c(NC(=O)C(Sc2ccccc2)c2ccccc2)sc(C(=O)N(C)C)c1C (stereo unspecified)	8%	6	-8	12	-15
COc1ccccc1CNC(=O)CSc1nc(C)cs1	2%	1	x	2.6	8
CSc1cc(N2CCOCC2)nc(-c2ccccc2Cl)n1	10%	12	-17	0.0	-4
COc1cccc(OCCSc2nc3ccccc3c(=O)[nH]2)c1	11%	2	x	-2.2	-3
C=CCn1c(SCc2nc3sc4c(c3c(=O)[nH]2)CCCC4)nc2ccccc2c1=O	2%	u	-7	-3.0	0
COc1cccc(/C=N/NC(=O)CNC(=O)c2ccc(S(=O)(=O)N3CCOCC3)cc2)c1OC	-5%	0	-22	-0.3	8
CC(=O)c1cc2c(O)c(O)ccc2o1	-10%	-7	6	5.8	-6
NS(=O)(=O)c1cccc(-n2cnnn2)c1	-3%	1	x	1.8	x
O=C(C[n+]1ccc(/C=N/O)cc1)NCc1ccccc1	-13%	1	x	-0.9	x
Cc1cc(C)n(CCc2nc(-c3ccc(F)cc3)cs2)n1	-4%	1	-24	1.1	0
Cc1cc(C)c(S(=O)(=O)Nc2ccc[nH]c2=O)c(C)c1	7%	1	-1	3.2	-3
COCCNC(=O)c1c[nH]c2ccc(S(=O)(=O)N(C)c3ccc(C)c(C)c3)cc2c1=O	x	2	x	0.3	x
COc1ccc(N2CCN(CCCNC(=O)c3ccc(CS(=O)(=O)c4ccc(OC)cc4)o3)CC2)cc1	x	6	x	-5.6	x
